FGF22 binding = binders of human FGF22 protein, primary screen, FGF22 synaptogenesis inhibitor project, biophysical, thermal shift, single point | Fibroblast growth factor 22 (Homo sapiens), Q9HCT0 | calls only at 9.99 µM | recombinant FGF22 thermal shift, SYPRO orange fluorescence; percent of sucrose octasulfate shift, DMSO zero | hit rate 1.5% among 340,000;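 active = melting point raised past a set limit in the mean and every replicate; three in four hits are not shown here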
Target sequence (Q9HCT0 whole entry, looked up): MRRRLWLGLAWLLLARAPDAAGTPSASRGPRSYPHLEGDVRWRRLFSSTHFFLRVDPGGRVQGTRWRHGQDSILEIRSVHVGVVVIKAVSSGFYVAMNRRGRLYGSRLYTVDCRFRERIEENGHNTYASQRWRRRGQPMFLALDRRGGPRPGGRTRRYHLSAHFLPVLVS
ALR inh = inhibitors of human ALR sulfhydryl oxidase, primary screen, biochemical, H2O2 detection, HRP-luminol luminescence, single point; FAD-linked sulfhydryl oxidase ALR (Homo sapiens), P55789; purified ALR, DTT oxidation; inhibition, % (concentration not given with the values); hit rate 3.8% among 290,000;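 active = mean and each replicate at 75% or more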;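 note: stock transfer was 7.5 nL into about 7.5 µL; 0% = neutral wells and 100% = wells with inactivated enzyme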
Target sequence (P55789 whole entry, looked up): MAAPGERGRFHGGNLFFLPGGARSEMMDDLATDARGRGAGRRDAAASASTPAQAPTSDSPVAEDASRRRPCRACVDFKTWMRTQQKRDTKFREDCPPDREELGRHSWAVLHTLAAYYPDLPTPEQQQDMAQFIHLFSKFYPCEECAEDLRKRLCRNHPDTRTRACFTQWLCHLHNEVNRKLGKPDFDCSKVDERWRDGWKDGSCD
Vif A3G = inhibitors of Vif binding to APOBEC3G peptide, primary screen, biochemical, TR-FRET, GST-Vif 1-94, biotin-A3G peptide, dose response retest (AID 1117319); Virion infectivity factor (Human immunodeficiency virus type 1 group M subtype B (isolate …; TR-FRET GST-Vif / biotin-A3G peptide binding; higher % means a stronger effect; test concentration not given here; strong numbers were not always called active; inhibition, %; hits with a dose series show IC50 in µM; hit rate 0.57% among 260,000;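 active = above the screen mean plus three standard deviations and confirmed in dose response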;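 note: Vif residues 1-94 fused to GST binding biotinylated APOBEC3G peptide 110-148; 0% = full assay without inhibitor and 100% = GST in place of GST-Vif; retest series ran down from 100 µM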
rRNA inh HTS = reduced GFP signal of wild-type E. coli, primary screen, bacterial rRNA inhibitor project, GFP/RFP fluorescence, OD600, single point. E. coli WT GFP vs humanized-ribosome RFP mutants, 24 h; active compounds read low; DMSO median 0, no signal -100. AID 720706, 2013. GFP signal change (wild-type ribosome), % (test concentration not listed). hit rate 1.6% among 350,000;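 active = significant combined selectivity score with lowered wild-type GFP, culture density cut under 30%, mutant RFP and density less affected; inactive = any of these conditions unmet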; note: one replicate is shown; some compounds called inactive have numbers as strong as hits
AF4-AF9 inh = inhibitors of AF4 peptide binding to AF9, primary screen, biochemical, AlphaScreen, biotin-AF4 peptide, FLAG-AF9, single point. Protein AF-9 (Homo sapiens), P42568. inhibition, % at 10 µM. hit rate 0.47% among 350,000. AID 651704, 2012;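 active = every replicate reaching a set inhibition limit, whatever the replicate mean, cut at about 25% in these data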;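 note: 0% = plate neutral control median and 100% = total signal loss; the record names both 10 and 1 µM as test concentration; the first replicate is given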
HNF4A DNA FP = change in binding of human HNF4A to DNA, primary screen, biochemical, fluorescence polarization, FITC-DNA; hit rate 0.3% among 360,000; 1 h; AID 1224865, 2016; activity change, % at 10 µM; in the data active = activity change above about 30%, passing the limit was not always enough;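 note: controls were the assay level and a saturating level of protein; the project sought stronger binding though the title names inhibitors; some compounds called inactive have numbers as strong as hits; positive values seem to mean higher polarization but the record does not say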
Target sequence (P41235 whole entry, looked up): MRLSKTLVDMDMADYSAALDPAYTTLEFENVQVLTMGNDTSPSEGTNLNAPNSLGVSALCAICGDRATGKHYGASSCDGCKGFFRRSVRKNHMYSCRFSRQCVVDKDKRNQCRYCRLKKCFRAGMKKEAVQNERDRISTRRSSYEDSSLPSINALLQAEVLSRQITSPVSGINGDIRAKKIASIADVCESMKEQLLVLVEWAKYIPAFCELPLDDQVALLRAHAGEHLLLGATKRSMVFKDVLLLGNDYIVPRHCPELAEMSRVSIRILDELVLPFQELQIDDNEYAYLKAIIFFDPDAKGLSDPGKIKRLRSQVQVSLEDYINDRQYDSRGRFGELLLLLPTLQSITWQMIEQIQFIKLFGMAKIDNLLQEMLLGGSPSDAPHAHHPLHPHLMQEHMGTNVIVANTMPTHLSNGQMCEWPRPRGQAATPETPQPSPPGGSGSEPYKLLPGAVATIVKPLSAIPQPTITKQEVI
Ecoli growth = E. coli growth inhibition, primary screen, OD600; AID 1053175, 2014; OD600 absorbance (no concentration beside the values); hit rate 0.21% among 330,000; Escherichia coli growth, 23 h; active compounds read low;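 active = OD600 absorbance below the run mean of sample wells minus 3.6 SD, in any replicate, cut at about 0.56 in these data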;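 note: stock transfer was 300 nL into about 60 µL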
rRNA inh HTS OD600 = also measured in rRNA inh HTS; calls as there; OD600 change, %; measured here: OD600 growth;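 optical density of the mix in the first replicate; 0 = DMSO median and -100 = no signal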
rRNA inh HTS RFP = further read-out of rRNA inh HTS, marked with its call; RFP signal change, %; measured here: RFP humanized mutant strains;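 first replicate; 0 = DMSO median and -100 = no signal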
* marks the source's active call; other numbers are inactive results; i = inactive; x = no result given; & = joins results of further samples. Not all compounds are listed. The share of hits here may be higher or lower than overall.

Short keys: A = FGF22 binding; B = ALR inh; C = Vif A3G; D = rRNA inh HTS; E = rRNA inh HTS OD600; F = rRNA inh HTS RFP; G = AF4-AF9 inh; H = HNF4A DNA FP; I = Ecoli growth
COc1ccc(-c2cnc3c(c2)C(=O)N([C@@H](C)CO)C[C@@H](C)[C@H](CN(C)C(=O)C2CCC2)O3)cc1
  A: i | B: x | C: x | D: 0 | E: 3 | F: -0.5 | G: -18 | H: x | I: x
COc1cc(CC(=O)Nc2ccc(Cl)c(C(F)(F)F)c2)cc(OC)c1OC
  A: i | B: x | C: 13% | D: -57 | E: -76 | F: -28 | G: 3.0 | H: -1.4 | I: 0.65
O=C(Nc1ccccc1)NN(C(=O)CCl)c1ccccc1
  A: i | B: 15 | C: x | D: 4 | E: 9 | F: 4.2 | G: -3.1 | H: 1.1 | I: 0.67
CC(=O)N/N=C/c1ccc(OCCOc2ccc(Br)cc2)cc1
  A: i | B: 1 | C: x | D: 5 | E: 3 | F: -0.7 | G: 1.5 | H: 1.7 | I: x
OC(COc1ccc2ccccc2c1)Cn1cncn1 (centres undefined)
  A: x | B: -27 | C: 0% | D: x | E: x | F: x | G: x | H: -0.1 | I: 0.72
Cc1cccc(CCNc2nc3ccc(C)cc3n3cnnc23)c1
  A: i | B: -4 | C: -20% | D: 15 | E: 8 | F: 1.0 | G: -0.3 | H: 3.7 | I: 0.7
CCN(C[C@H]1N[C@@](Cc2ccccc2)(C(=O)OC)[C@H]2C(=O)N(C)C(=O)[C@@H]12)S(=O)(=O)c1ccc(-c2ccccc2)cc1
  A: i | B: x | C: -3% | D: 11 | E: 28 | F: 5.6 | G: -0.7 | H: 1.8 | I: 0.75
CO[C@H]1CN(C)C(=O)c2ccc(NS(=O)(=O)c3cccc(F)c3)cc2OC[C@@H](C)NC[C@H]1C
  A: i | B: x | C: x | D: 1 | E: -1 | F: -1.1 | G: -3.3 | H: x | I: x
CCN(CC(=O)NCc1ccc(F)cc1)C(=O)c1cccc(S(=O)(=O)N(C)c2ccc(OC)cc2)c1
  A: i | B: x | C: x | D: -1 | E: -15 | F: -2.0 | G: 0.9 | H: -4.7 | I: 0.71
CSCc1ccc(C(=O)Nc2ccc(C(N)=O)cc2)cc1
  A: i | B: -6 | C: 2% | D: 19 | E: 19 | F: 2.4 | G: 0.2 | H: 1.6 | I: 0.72
CC(=O)Nc1ccc(S(=O)(=O)N2CCC(c3nnc(-c4ccc(C)cc4)o3)CC2)cc1
  A: x | B: -10 | C: x | D: x | E: x | F: x | G: x | H: 4.6 | I: 0.75
COc1ccc(/C=N/NC(N)=S)cc1
  A: i | B: x | C: -14% | D: 1 | E: -3 | F: -4.9 | G: -4.2 | H: -1.0 | I: x
O=c1ncn(-c2ccc(F)cc2)c2ncccc12
  A: x | B: -18 | C: -3% | D: x | E: x | F: x | G: x | H: -4.2 | I: 0.67
Cc1ccc(C(=O)NC(=S)NNC(=O)c2ccccc2O)cc1
  A: i | B: 31 | C: x | D: -5 | E: -13 | F: -1.0 | G: -2.7 | H: 2.1 | I: 0.68
Cn1c(SCc2cccc(Cl)c2)nc(C(F)(F)F)cc1=O
  A: i | B: -28 | C: 4% | D: -3 | E: 0 | F: -6.3 | G: 2.1 | H: -0.1 | I: 0.75
O=C(C1CCCCC1)N1CC2(C1)[C@@H](c1ccccc1)[C@@H](CO)N2C(=O)c1cccnc1
  A: i | B: x | C: x | D: -2 | E: -1 | F: -1.3 | G: 1.5 | H: x | I: x
O=C(Nc1ccc(Br)cc1Br)C1CC(=O)N(Cc2ccccc2)C1 (centres undefined)
  A: i | B: -4 | C: x | D: -34* | E: -26* | F: -8.0* | G: -13 | H: 0.3 | I: 0.7
Cc1ccsc1/C=N/N1CCN(c2ccccn2)CC1
  A: i | B: 99* | C: 2% | D: x | E: x | F: x | G: 17 | H: 1.0 | I: x
CCOC(=O)[C@]12CCC=C1N(Cc1ccco1)C(=O)[C@H](CC(=O)N1CCC(c3ccccc3)CC1)C2
  A: i | B: x | C: x | D: 9 | E: 10 | F: 0.6 | G: 0.5 | H: -12 | I: x
Cc1cc(C)n(-c2ccc(Cl)c(C(=O)Nc3ccc(-c4nnc5n4CCCCC5)cc3)n2)n1
  A: x | B: x | C: 4% | D: x | E: x | F: x | G: x | H: -0.5 | I: 0.73
O=C(c1ccccc1F)N1CC2(C1)[C@@H](c1ccccc1)[C@H](CO)N2CC1CC1
  A: i | B: x | C: x | D: -5 | E: -11 | F: 1.4 | G: 1.2 | H: x | I: x
CCOC(=O)C(=O)Nc1ccc([N+](=O)[O-])cc1OC
  A: x | B: -2 | C: -3% | D: x | E: x | F: x | G: x | H: -1.2 | I: 0.66
CCN(CC)S(=O)(=O)c1ccc(/C=C/C(=O)Nc2ccc(F)c(F)c2F)cc1
  A: x | B: -6 | C: 1% | D: x | E: x | F: x | G: x | H: 1.1 | I: 0.64
Cc1nnc(SCC(=O)NCc2ccco2)n1-c1ccc(F)cc1
  A: x | B: -1 | C: 2% | D: x | E: x | F: x | G: x | H: -3.2 | I: 0.7
Cc1ccc(S(=O)(=O)N(CCC(=O)N2CCOCC2)c2ccccc2)cc1
  A: i | B: x | C: 1% | D: 6 | E: 10 | F: 0.9 | G: -10 | H: -2.6 | I: 0.69
Cc1cccc(CCN2C(Nc3ccccc3)=NC[C@@H]2C)c1
  A: i | B: x | C: x | D: 6 | E: 6 | F: -0.8 | G: 1.5 | H: -2.3 | I: 0.7
Cc1[nH]c(=O)[nH]c(=O)c1/C=N/NC(=O)[C@H](C)N
  A: i | B: x | C: x | D: 1 | E: 2 | F: 2.8 | G: -5.6 | H: -1.2 | I: x
O=C1CCc2cc(S(=O)(=O)NC(Cc3ccccc3)C(=O)NC3CCCC3)ccc2N1 (centres undefined)
  A: i | B: 84* | C: -4% | D: 5 | E: 3 | F: -2.5 | G: 5.5 | H: 0.2 | I: 0.75
COc1cc(OC)cc(C(=O)NC(C(=O)Nc2ccc3c(c2)OCO3)C(C)C)c1 (centres undefined)
  A: i | B: -11 | C: 5% | D: 0 | E: -9 | F: 0.3 | G: 0.2 | H: 3.1 | I: 0.7
CC1=C(C(=O)OCC2CCCO2)C(c2ccncc2)C2=C(CCCC2=O)N1 (centres undefined)
  A: x | B: -5 | C: -5% | D: x | E: x | F: x | G: x | H: 2.0 | I: 0.76
O=C(CSc1nncs1)N1CCN(C(=O)c2ccco2)CC1
  A: i | B: -19 | C: 7% | D: 2 | E: 8 | F: -3.0 | G: -1.2 | H: -1.4 | I: 0.64
COc1ccc(CCCc2n[nH]c(=S)n2C)cc1C
  A: i | B: 31 | C: x | D: 7 | E: -1 | F: -1.4 | G: -7.1 | H: 1.7 | I: 0.69
CC(C)C(=O)Nc1ccc(-c2nc3ncccc3o2)cc1
  A: i | B: 15 | C: x | D: 6 | E: 7 | F: 0.2 | G: 1.1 | H: 5.2 | I: 0.67
O=C(NCc1ccccc1Cl)[C@H]1CCCN1C(=O)[C@H]1CCCN1
  A: i | B: x | C: x | D: 20 | E: 14 | F: 3.2 | G: -0.4 | H: 1.3 | I: x
COc1ccc(CNC(=O)C[C@H]2C=C[C@H](NS(=O)(=O)c3cccc(OC)c3)[C@@H](CO)O2)cc1
  A: i | B: x | C: x | D: -4 | E: -4 | F: 0.1 | G: -2.0 | H: x | I: x
Cc1cc2c(=O)n(C)c(SCC(=O)Nc3ccc(F)cc3)nc2s1
  A: i | B: x | C: x | D: -1 | E: 4 | F: -1.0 | G: -1.6 | H: 2.1 | I: x
CCOc1cc(C(=O)NCCCNC(=O)c2cc(OCC)c(OCC)c(OCC)c2)cc(OCC)c1OCC
  A: i | B: -4 | C: x | D: 9 | E: 11 | F: -0.8 | G: -3.1 | H: -1.7 | I: 0.67
CCOc1ccc(NC(=O)N2CCC(c3nc4ccccc4[nH]3)CC2)cc1
  A: i | B: -29 | C: 6% | D: -24 | E: -24 | F: -4.6 | G: 0.9 | H: -1.0 | I: 0.7
CCN(CC)C(=O)Cn1cc(SCC(=O)Nc2cc(C)on2)c2ccccc21
  A: i | B: 6 | C: -3% | D: -7 | E: -5 | F: -2.5 | G: 0.9 | H: 0.9 | I: 0.69
COc1ccc(CNC(=O)C2CCC(CNc3c(N4CCOCC4)c(=O)c3=O)CC2)cc1 (centres undefined)
  A: i | B: -4 | C: 3%&4% | D: 6&1 | E: 8&11 | F: 0.6&1.0 | G: -0.4&-1.0 | H: -1.3&-1.9 | I: 0.68&0.69
C/C(=N\Nc1nc(-c2cc(C)ccc2C)cs1)c1cc2ccccc2oc1=O
  A: x | B: 15 | C: -8% | D: x | E: x | F: x | G: x | H: 3.8 | I: x
Cc1ccc2[nH]cc(C(=O)CN3CCC4(CC3)OCCO4)c2c1
  A: x | B: -4 | C: 25% | D: x | E: x | F: x | G: x | H: 5.6 | I: 0.69
CC1(C(=O)Nc2ccc3c(c2)OCO3)CCN1C(=O)CCc1cccs1 (centres undefined)
  A: i | B: x | C: x | D: -2 | E: -12 | F: 0.2 | G: 3.7 | H: -5.7 | I: x

Compounds above with four or more nitrogen atoms, in the order listed:
Short keys: A = FGF22 binding; B = ALR inh; C = Vif A3G; D = rRNA inh HTS; E = rRNA inh HTS OD600; F = rRNA inh HTS RFP; G = AF4-AF9 inh; H = HNF4A DNA FP; I = Ecoli growth
Cc1cccc(CCNc2nc3ccc(C)cc3n3cnnc23)c1
  A: i | B: -4 | C: -20% | D: 15 | E: 8 | F: 1.0 | G: -0.3 | H: 3.7 | I: 0.7
CC(=O)Nc1ccc(S(=O)(=O)N2CCC(c3nnc(-c4ccc(C)cc4)o3)CC2)cc1
  A: x | B: -10 | C: x | D: x | E: x | F: x | G: x | H: 4.6 | I: 0.75
Cc1ccsc1/C=N/N1CCN(c2ccccn2)CC1
  A: i | B: 99* | C: 2% | D: x | E: x | F: x | G: 17 | H: 1.0 | I: x
Cc1cc(C)n(-c2ccc(Cl)c(C(=O)Nc3ccc(-c4nnc5n4CCCCC5)cc3)n2)n1
  A: x | B: x | C: 4% | D: x | E: x | F: x | G: x | H: -0.5 | I: 0.73
Cc1nnc(SCC(=O)NCc2ccco2)n1-c1ccc(F)cc1
  A: x | B: -1 | C: 2% | D: x | E: x | F: x | G: x | H: -3.2 | I: 0.7
Cc1[nH]c(=O)[nH]c(=O)c1/C=N/NC(=O)[C@H](C)N
  A: i | B: x | C: x | D: 1 | E: 2 | F: 2.8 | G: -5.6 | H: -1.2 | I: x
O=C(CSc1nncs1)N1CCN(C(=O)c2ccco2)CC1
  A: i | B: -19 | C: 7% | D: 2 | E: 8 | F: -3.0 | G: -1.2 | H: -1.4 | I: 0.64
CCOc1ccc(NC(=O)N2CCC(c3nc4ccccc4[nH]3)CC2)cc1
  A: i | B: -29 | C: 6% | D: -24 | E: -24 | F: -4.6 | G: 0.9 | H: -1.0 | I: 0.7
CCN(CC)C(=O)Cn1cc(SCC(=O)Nc2cc(C)on2)c2ccccc21
  A: i | B: 6 | C: -3% | D: -7 | E: -5 | F: -2.5 | G: 0.9 | H: 0.9 | I: 0.69

Results in Ecoli growth and AF4-AF9 inh, for some of the entries so far:
molecule	Ecoli growth	AF4-AF9 inh
CCOc1ccc(NC(=O)N2CCC(c3nc4ccccc4[nH]3)CC2)cc1	0.7	0.9
CC1(C(=O)Nc2ccc3c(c2)OCO3)CCN1C(=O)CCc1cccs1 (centres undefined)	x	3.7

Screening data as filed in PubChem BioAssay.
